# High-throughput results as filed in PubChem.
# GIRK2 activ: opens human GIRK2 potassium channels. P48051. AID 1259325. actives 0.05% (n = 63,000). HEK293-GIRK2 thallium flux, Thallos fluorescence. calls only for hits at 25 µM;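 active = among the strongest 0.2% of first-round signals and kept after retests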;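 also: first round at about 10 µM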
# Target sequence (P48051 whole entry, looked up): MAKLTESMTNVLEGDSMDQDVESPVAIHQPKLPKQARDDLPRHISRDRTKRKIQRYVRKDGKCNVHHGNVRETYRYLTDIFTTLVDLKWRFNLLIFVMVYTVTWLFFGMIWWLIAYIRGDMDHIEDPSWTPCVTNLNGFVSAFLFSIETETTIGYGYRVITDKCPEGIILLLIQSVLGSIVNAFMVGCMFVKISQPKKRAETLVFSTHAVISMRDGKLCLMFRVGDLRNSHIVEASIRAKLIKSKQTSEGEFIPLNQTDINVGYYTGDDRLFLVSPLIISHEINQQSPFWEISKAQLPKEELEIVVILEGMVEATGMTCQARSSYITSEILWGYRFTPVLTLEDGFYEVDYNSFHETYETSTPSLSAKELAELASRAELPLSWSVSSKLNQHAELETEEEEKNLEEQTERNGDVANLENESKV
# Calls only; i = inactive. Not all compounds are listed; count on the stated rates, not on these rows.
smiles,GIRK2 activ
CCOc1ccc(-c2nc(N)nc(C(F)(F)F)c2-c2ccccc2)c(O)c1,i
CCCCc1ccc(-n2c(C)c(C)n3c4c(=O)n(C(C)C(=O)OC)c(=O)n(C)c4nc23)cc1 (centres undefined),i
COc1ccc(-c2cc(C(=O)N3CCC(NC(=O)c4ccc5c(c4)OCO5)CC3)[nH]n2)cc1,i
CC1CCCCN1CC(O)COc1ccc2ccccc2c1 (centres undefined),i
CCOc1cc(C(=O)NCc2cnn3ccccc23)cc(OCC)c1OCC,i
CCc1ccc(-c2noc(Cn3cnc4c(nnn4Cc4ccc(F)cc4)c3=O)n2)cc1,i
CCOc1ccc(NC(=O)CSc2nc3c(-c4ccccc4)c[nH]c3c(=O)n2C2CC2)cc1,i
Cc1cnc(-n2nnc(C(=O)N3CCc4ccccc4C3)c2C)s1,i
CS(=O)(=O)NCCn1ncc2c(N3CCCC3)ncnc21,i
Cn1nc(C(=O)Nc2ccc3c(c2)CN(C(=O)C2CC2)CC3)ccc1=O,i
COc1ccccc1-n1nnc(C(=O)NCc2c(C)noc2C)c1-c1ccccn1,i
Cc1nc(-c2ccc(S(=O)(=O)N3CCN(C(=O)c4ccco4)CC3)s2)cs1,i
Cc1cc(C(O)CCNC(=O)C2(c3ccc(Cl)cc3)CCCC2)c(C)o1 (centres undefined),i
CC(C)c1ccc(NC(=O)CSc2ncc3c(n2)-c2ccccc2N(C)S3(=O)=O)cc1,i
Cc1c(C(=O)N(C)C)sc2[nH]c(=O)c(C(=O)Nc3ccc(Cl)c(Cl)c3)c(O)c12,i
CC(C)c1ccc(Cc2cnc(NC(=O)c3ccc(-n4cnnn4)cc3)s2)cc1,i

# Among those listed so far, these have a furan ring, fused or not.
smiles,GIRK2 activ
Cc1nc(-c2ccc(S(=O)(=O)N3CCN(C(=O)c4ccco4)CC3)s2)cs1,i
Cc1cc(C(O)CCNC(=O)C2(c3ccc(Cl)cc3)CCCC2)c(C)o1 (centres undefined),i

# Additional results follow:
smiles,GIRK2 activ
O=C(Nc1ccc(S(=O)(=O)NC2CCCCC2)cc1)c1cc(-c2ccncc2)nc2ccccc12,i
COc1ccc(-n2ncc3c(=O)n(Cc4nc(-c5ccccc5)no4)cnc32)cc1,i
O=C(Cn1nc2c(c1NC(=O)c1ccc3c(c1)OCO3)CSC2)NCc1ccco1,i
COCCCn1c(C(=O)N2CCc3ccccc32)cc2c(=O)n(C)c(=O)n(C)c21,i
COc1ccc(S(=O)(=O)N2CCN=C2SCc2ccccc2Cl)cc1,i
CCOC(=O)C1=C(C)N(C)C(=O)NC1c1cc(OC)c(OC)c(OC)c1 (centres undefined),i
O=C(NCCc1ccncc1)C1CCC1,i
Cc1noc(C)c1CC(=O)OC1CN(c2nc3c(C)cccc3s2)C1,i
O=C(Cc1cccs1)N1CCC(CSCc2ccco2)CC1,i
O=C(Nc1cnc(N2CCCC2)nc1)Nc1ccc(F)cc1F,i
c1ccc(-c2nnc3sc(C4CC4)nn23)cc1,i
Cn1cc(C(=O)N2CCCC2)cc(NC(=O)C2CC2)c1=O,i
O=C(NCc1n[nH]c(=O)c2ccccc12)C1(c2ccc(Cl)cc2)CCCC1,i
COc1ccc(NC(=O)c2ccc(CNS(=O)(=O)c3cccc(Cl)c3)cc2)cc1,i
CCc1ccc(Oc2cc(N3CCC(C(=O)NC4CCCCCC4)CC3)ncn2)cc1,i
O=C(Cc1ccc(F)cc1)NCCN1CCN(c2ccccc2)CC1,i
O=C(NC1CC1)c1nnn(-c2ccc(NC(=O)c3ccco3)cc2)n1,i
Cc1ccccc1-c1noc(CSc2nc3ccsc3c(=O)n2CCC(C)C)n1,i
Cn1ccnc1SCC1CCN(C(=O)c2c(F)cccc2Cl)CC1,i
COc1cccc(CC(=O)OC2CN(c3nc4c(Cl)cccc4s3)C2)c1,i
CCCCC(=O)N1CCC(c2nnc(-c3ccccc3OC)s2)CC1,i
Cc1ccccc1OCC(O)Cn1c(N2CCC(C)CC2)nc2c1c(=O)n(C)c(=O)n2C (centres undefined),i
COc1ccc(NC(=O)c2cc(=O)c(OC)co2)cc1Cl,i
COc1ccc(C(=O)N(CCN(C)C)c2nc3ccc(S(C)(=O)=O)cc3s2)cc1,i

# Some of the entries so far, field by field:
Cn1ccnc1SCC1CCN(C(=O)c2c(F)cccc2Cl)CC1
- GIRK2 activ: i
COc1cccc(CC(=O)OC2CN(c3nc4c(Cl)cccc4s3)C2)c1
- GIRK2 activ: i
CCCCC(=O)N1CCC(c2nnc(-c3ccccc3OC)s2)CC1
- GIRK2 activ: i
Cc1ccccc1OCC(O)Cn1c(N2CCC(C)CC2)nc2c1c(=O)n(C)c(=O)n2C (centres undefined)
- GIRK2 activ: i

# Next part:
smiles,GIRK2 activ
COc1ccc(C(=O)NCCN2CCN(c3ccccc3OC)CC2)cc1,i
COc1ccc(SCCCC(=O)Nc2cccc(C)c2C)cc1,i
C=CCn1c(SCC(=O)Nc2ccc3c(c2)OCCO3)nc2sc(C)c(C)c2c1=O,i
COCC1CCCN(CC(=O)Nc2nc(C)cs2)C1 (centres undefined),i
COc1ccc(NC(=O)Cn2c(C)cc(C)c(C#N)c2=O)cc1OC,i
COc1cccc(S(=O)(=O)NCc2ccc(C(=O)N3CCCC3)cc2)c1,i
O=C(CN1CC(c2nc(C3CC3)no2)C1)NCC1CCCO1 (centres undefined),i
CCN(CC)C(=O)c1cc(-c2ccccn2)nc2ccccc12,i
COc1ccc(C2(CNC(=O)c3ccccc3)CCCC2)cc1,i
COC(=O)Cn1c(=O)c2c(nc(-n3nc(C)c(C)c3C)n2C)n(C)c1=O,i
O=C(CC1CCCC1)N1CCC(Oc2ccccn2)CC1,i
Cc1cc(NC(=O)COc2ccccc2)c2cc(F)cc(F)c2n1,i
CSc1ccccc1NC(=O)CSc1nnc(CCc2nc3ccccc3s2)o1,i
CCCc1nnsc1C(=O)Nc1nnc(-c2ccccc2Cl)o1,i
O=C(NCCc1ccoc1)NCc1cccs1,i
O=C(NCCC(O)c1ccccc1)C(=O)Nc1ccccc1 (centres undefined),i
Cc1nc(NC(=O)c2cccc(S(=O)(=O)N3CCOCC3)c2)sc1C,i
O=C(NCC1CCN(c2cnccn2)CC1)c1ccccc1C(F)(F)F,i
Cc1c(C)n2c3c(=O)n(CC(N)=O)c(=O)n(C)c3nc2n1-c1ccc(Br)cc1,i
O=C1CCC(=O)N(O)CCCCCNC(=O)CCC(=O)N(O)CCCCCNC(=O)CCC(=O)N(O)CCCCCN1,i
Cc1cc(C)c(NS(=O)(=O)c2c(C)cc(N3C(=O)CCS3(=O)=O)cc2C)c(C)c1,i
COc1ccc(-c2noc(-c3nnn(-c4ccc(Cl)cc4)c3C)n2)cc1OC,i
CCCn1c(=O)c2c(nc3n(-c4ccc(C(=O)OCC)cc4)c(C)cn23)n(C)c1=O,i
COc1ccc(-c2ncnc(C(F)(F)F)c2-c2ccccc2)c(O)c1,i
COc1cccc(-c2cc(=O)[nH]c(SCc3nc(-c4ccccc4Cl)no3)n2)c1,i
O=C(Nc1cnoc1)c1ccncc1,i
CCOc1ccc(-n2nnc(C(=O)Nc3ccccc3F)c2C)cc1,i
O=C(/C=C/c1ccccc1)Nc1cnc(-n2cccn2)nc1,i
O=C(CCc1csc(NC(=O)NC2CCCCC2)n1)NCCCc1ccccc1,i
O=C(CSc1nnc2ccccn12)Nc1ccc(Cl)cc1,i
Cc1noc(C2CCCN2C(=O)CCc2c(C)noc2C)n1 (centres undefined),i
CCOC(=O)c1c(-c2ccc(C)o2)csc1NC(=O)CCl,i
CC(C)Cn1c(SCC(=O)c2ccc(Cl)cc2)nc2c1c(=O)[nH]c(=O)n2C,i
O=C(CCn1ccc(=O)[nH]c1=O)N1CCC(Oc2ncccc2Cl)CC1,i
Cc1oc(-c2ccc(Cl)cc2[N+](=O)[O-])cc1C(=O)Nc1nccs1,i
COCCN1CCC(CNC(=O)c2ccccc2SC)CC1,i
O=C(Cn1nnc2ccccc21)Nc1cc(N2CCOCC2)ncn1,i
CCC(=O)NCCCn1ccnc1-c1ccccc1,i
COc1ccc(S(=O)(=O)NCc2nnnn2-c2ccc(Cl)cc2)cc1,i
COc1cccc(N2CCN(C(=O)CCCn3c(=O)[nH]c4ccccc4c3=O)CC2)c1,i
CC(C)(C)Cc1nnc(C2CCCN(C(=O)C3CCCC3)C2)o1 (centres undefined),i
Cc1nc2c(c(=O)n1CC(=O)NCCC(C)C)CN(Cc1ccccc1)CC2,i
O=C(NCCNc1ccc(-n2cccc2)nn1)Nc1ccc(F)c(Cl)c1,i
Cc1noc(C)c1S(=O)(=O)N1CCN(CC(O)c2ccco2)CC1 (centres undefined),i
C=C(C)Cn1c(=O)c2c(nc3n(CCO)c(C)cn23)n(C)c1=O,i
Cc1cc(C)nc(Nc2nc(C(=O)N3CCN(C(=O)c4ccco4)CC3)cs2)n1,i
O=C(NCc1ccc2c(c1)OCO2)c1ccc2c(=O)n(-c3ccccc3)c(=O)[nH]c2c1,i
O=C(Nc1sccc1-c1nc2ccccc2s1)c1cc(Br)ccc1Cl,i
COc1ccc(C)cc1NC(=O)Cn1nc(C)cc1C(=O)N1CCOCC1,i
O=C(NCCn1ncccc1=O)c1ccccc1C(F)(F)F,i
COc1cccc(-c2noc(-c3c[nH]c4ccccc4c3=O)n2)c1,i
O=C(O)Cc1nc(-c2ccccc2O)n[nH]1,i
O=C(NCCC1=CCCCC1)c1cc(=O)c(OCc2ccc(F)cc2)co1,i
O=C(Cn1cccc(-c2nc(-c3cnccn3)no2)c1=O)NCc1ccc(F)cc1Cl,i
COC(=O)c1cccc(NC(=O)C2=Cc3cc(OC)ccc3OC=C2)c1,i
CCN(CC)c1nc2ccsc2c(=O)n1CCC(=O)NCCc1cccs1,i

# The list goes on:
smiles,GIRK2 activ
Cc1ccsc1C(=O)NC1CCN(c2ccc(-c3cccc(F)c3)nn2)CC1,i
O=C1C(c2c(O)[nH]c3ccccc23)=Nc2ccccc21,i
CC(=O)c1ccc(N2CCN(C(=O)CCn3cnc4c([nH]c5ccc(C)cc54)c3=O)CC2)cc1,i
CC(N)(Cc1ccc(O)c(O)c1)C(=O)O (centres undefined),i
CCOC(=O)c1scc(-c2ccccc2)c1S(=O)(=O)Nc1ccc(F)cc1,i
CN1C(=O)C(C)(C)COc2ccc(NC(=O)Nc3cccs3)cc21,i
COc1nn(C)cc1C(=O)NCC(=O)Nc1nc(CC(N)=O)cs1,i
COCCn1c(=O)c2c(nc(-n3nc(C)c(C)c3C)n2CC(C)C)n(C)c1=O,i
CC(C)(C)N1CC(c2nc3ccccc3n2Cc2c(F)cccc2Cl)CC1=O (centres undefined),i
O=C(CN1CCN(c2ccc3c(c2)OCCO3)C1=O)Nc1ccc(-n2cnnn2)cc1,i
COc1ccc(S(=O)(=O)N(C)c2ccsc2C(=O)NCc2ccccc2Cl)cc1,i
CCCn1c(=O)c2c(nc3n(-c4cc(OC)ccc4OC)c(-c4ccccc4)cn23)n(C)c1=O,i
Cc1nc(-c2cccc(NC(=O)C3(c4ccccc4)CCOCC3)c2)cs1,i
Cc1ccc(-n2ncc3c(=O)n(CC(=O)N4CCCc5ccccc54)cnc32)c(C)c1,i
CCS(=O)(=O)N1CCCc2cc(NS(=O)(=O)c3cc(C)ccc3OC)ccc21,i
Cn1nc(CNC(=O)NCc2ccc(F)cc2)cc1-c1ccncc1,i
Cc1ccc2c(c1)C(=O)OC(C)(C(=O)Nc1cc(C)on1)C2 (centres undefined),i
CC(C)(C)N(C(=O)c1ccccc1[N+](=O)[O-])C(=O)N1CCCCC1,i
O=C(NC1(c2nc(C3CC3)no2)CCCCC1)c1cc(-c2ccc(F)cc2)n[nH]1,i
O=C(c1cnn2c1OCCC2)N1CCN(C/C=C/c2ccccc2)CC1,i
CCN(CC)C(=O)Oc1ccc2c(c1)O/C(=C\c1ccc([N+](=O)[O-])cc1)C2=O,i
COc1ccc(C(=O)N2CCCSCC2CN2CCOCC2)cc1OC (centres undefined),i
O=C(CSc1nccc(N2CCCCCC2)n1)Nc1ccc(Br)cc1,i
O=C1COc2cc(OCc3ccc(Cl)cc3)ccc21,i
O=C(c1ccc2nsnc2c1)N1CCN(CC(F)(F)F)CC1,i
COc1cccc(-n2c(=O)[nH]c3c(C(N)=O)nc(-c4ccc(OC)cc4OC)nc32)c1,i
Cn1c(C2CCN(S(C)(=O)=O)CC2)nn(Cc2ccc(Cl)c(Cl)c2)c1=O,i
COC(=O)c1ccc(C2c3c(oc4cc(C)c(C)cc4c3=O)C(=O)N2c2cc(C)on2)cc1 (centres undefined),i
O=C(COc1ccc(Br)cc1)NC1CCCC1,i
CSc1ncccc1C(=O)N1CCC2(CC1)OCCS2,i
CCOc1ccc(NC(=O)Cn2cccc(-c3nc(-c4ccccc4)no3)c2=O)cc1,i
CN(CC(=O)NCCc1ccc(S(N)(=O)=O)cc1)c1nc2c(Cl)cccc2s1,i
CCCc1noc(-c2ccc(SCC(=O)Nc3ccc4c(c3)OCO4)nc2)n1,i
O=C(NCCCn1ncccc1=O)c1cncc(Br)c1,i
COc1c(C)cnc(Cn2c(=O)n(Cc3ccc(F)cc3)c(=O)c3sccc32)c1C,i
O=C(c1ccc(OC(F)(F)F)cc1)N1CCOCC1CO (centres undefined),i
COc1cccc(NCCn2c(C)cn3c4c(=O)[nH]c(=O)n(C)c4nc23)c1,i
O=C(CSc1nccc(N2CCCCC2)n1)Nc1ccc(Cl)cc1C(F)(F)F,i
Cc1cc(C)nc(NS(=O)(=O)c2ccc(NS(C)(=O)=O)cc2)n1,i
Cc1cc2ncn(CC(=O)N(CC(C)C)CC(C)C)c2cc1C,i
CC(C)(C)CC(=O)NCC#CCOc1ccccc1C(N)=O,i
Nc1c(-c2ccccn2)nsc1C(=O)N1CCN(c2cccc(C(F)(F)F)c2)CC1,i
